Ba CapD inh = blocks the Bacillus anthracis CapD enzyme; z-score (no concentration beside the values); 140,000 tested, 0.23% active; AID 492967; purified CapD enzyme, fluorescence intensity read-out; stronger effect = lower value; some hits fall short of the stated cut;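 active = z-score under -4 in either of two replicates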;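 also: stock transfer was 100 nL into about 40 µL; score is relative to mean and spread of the plate; one replicate is shown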
AID504770 = E. coli YBA685 growth inhibition, screen for V. cholerae RctB inhibitors; E. coli YBA685 rctB-dependent plasmid, OD600 growth, 3 h; stronger effect = lower value; z-score (concentration not given with the values); 130,000 tested, 0.27% active; AID 504770;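 active = z-score under -2 on both plates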;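 also: wells of about 30 µL received 100 nL stock; score is relative to mean and SD of the test wells; the first replicate is given; strong numbers were not always called active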
Starred values were filed as active, the others as inactive; i = inactive; / = not tested or not shown; & = joins results of further samples. These rows are one share of the data. The share of hits here may be higher or lower than overall.

Values run as follows: Ba CapD inh | AID504770
COC(=O)C(F)(Sc1c[nH]c2ccccc12)C(F)(F)F (stereo not drawn)
    -0.16 | 0.55
OC(COc1ccc(Cl)cc1)CN1CCC(Cc2ccccc2)CC1 (stereo not drawn)
    -0.41 | 1.3
O=C(O)c1c2c(nc3ccc(S(=O)(=O)N4CCC(C(=O)NC5CCCC5)CC4)cc13)CCCCC2
    2.2 | -0.8
CN(CC(=O)O)c1ncc(-c2nnnn2-c2ccccc2)c(-c2ccccc2Cl)n1
    0.5 | 0.25
O=C(c1ccc2c(c1)C(=O)N(CC1CCCO1)C2=O)c1ccc2c(c1)C(=O)N(CC1CCCO1)C2=O (stereo not drawn)
    / | 0
CCOC(=O)Oc1ccc2oc(=O)cc(C)c2c1
    0.085 | 0.45
OC1CCCN(Cn2nc(-c3ccccc3)n(-c3ccc(F)cc3F)c2=S)C1 (stereo not drawn)
    / | -0.95
CS/C(N)=N/N=C/c1ccc(Cl)cc1
    -2.5 | /
Clc1snnc1CN1CCOCC1
    0.39 | -0.85
CCc1ccc(NC(=O)c2noc3ncnc(N4CCCC4)c23)cc1
    -0.06 | 0.3
COc1ccc(S(=O)(=O)n2nc(-n3c(C)ccc3C)c3c(F)cccc32)cc1OC
    -1.6 | 0.15
CCc1cccc(CC)c1NC(=O)c1cc(S(=O)(=O)N2CC3CC(C2)c2cccc(=O)n2C3)ccc1F (stereo not drawn)
    -0.3 | /
NC(=O)COc1ccc2oc(-c3ccccc3)cc(=O)c2c1
    12 | -0.05
Cc1ccc2nc(-c3ccc(N)cc3)sc2c1S(=O)(=O)O
    105 | /
Cc1c(C(=O)N2CCN(Cc3ccccc3)CC2)sc2ncn(CC(=O)N3CC(C)CC(C)C3)c(=O)c12 (stereo not drawn)
    -0.55 | /
COc1ccc(NC(=O)CS(=O)c2ccc(Br)cc2)cc1 (stereo not drawn)
    -0.47 | /
CCC(C)Nc1nc(-c2ccccc2F)nc2ccccc12 (stereo not drawn)
    -0.1 | /
COc1cccc(/C=N/c2nnc(C)s2)c1O
    -1.2 | 1.4
CCOC(=O)C1=NN(c2ccc([N+](=O)[O-])cc2)C2C(=O)N(c3ccccc3Cl)C(=O)C12 (stereo not drawn)
    -0.09 | /
COc1ccc(CC2S/C(=N/c3ccccn3)NC2=O)cc1 (stereo not drawn)
    i | -0.2
Cc1ccccc1-c1nn[nH]n1
    0.18 | -0.9
CC(C#N)Sc1nnc2ccccn12 (stereo not drawn)
    / | 0.3
Cc1ccc2[nH]c(O)c(N=NC(=O)Cc3cn4ccsc4n3)c2c1
    / | 0.6
COc1ccc(CCNC2CC(=O)N(C3CCCCC3)C2=O)cc1OC (stereo not drawn)
    0.095 | -0.65
Oc1c(/C=C2\C=Nc3ccccc32)sc(=Nc2ccccc2)n1C1CCCC1
    -0.19 | -1.5
Cc1ccc(-n2ccnc2SCC(=O)NC(=O)C2COc3ccccc3O2)c(C)c1 (stereo not drawn)
    / | -0.2
O=C1CSC(CS(=O)(=O)Cc2cccc(C(F)(F)F)c2)=N1
    -0.01 | -0.65
CCOC(=O)c1c(Nc2ccccc2)sc([N+](=O)[O-])c1N
    -1.4 | /
O=c1cc(CO)oc(CN2CCOCC2)c1O
    -0.35 | 0.15
CCOc1ccc(C(=O)NCCn2ccc3ccccc32)cc1
    -0.54 | 0.15
CC(CC(=O)NC1CCCC1)CC1=NS(=O)(=O)c2ccccc2N1 (stereo not drawn)
    -0.08 | 0.05
CCCc1nc2n(n1)N=C(c1ccccc1)CS2
    -0.78 | /
O=S(=O)(c1cc(Br)c(Cl)s1)N1CCN(c2ccccc2Cl)CC1
    0 | /
COc1cc(OC)nc(-c2nnc(SCc3cccc(C(F)(F)F)c3)n2C)n1
    -0.48 | /
CCN(CC)c1ccc(C(=O)NNC(=O)NCCNc2ccc([N+](=O)[O-])cn2)cc1
    9.9 | /
O=C(O)CCc1c(C(=O)O)[nH]c2cc(Cl)cc(Cl)c12
    -1.4 | 1.5
CC1S/C(=C\c2nc3ccccc3s2)NC1=O (stereo not drawn)
    / | -0.1
Nc1c(C(=O)c2ccc(Cl)s2)sc2c1c(=O)[nH]c(=O)n2Cc1cccs1
    / | -0.05
COc1cc(C2C(C#N)=C(N)OC3=C2C(=O)CC(C)(C)C3)ccc1OCC(N)=O (stereo not drawn)
    -0.51 | /
Cc1ccc(P(=O)(N2CCOCC2)N2CCOCC2)o1
    / | -0.1
O=C(Cn1nc(Cc2cccnc2)c2ccccc2c1=O)N1CCCC1
    70 | -0.5
Cc1nc2[nH]n(-c3ccccc3)c(=O)c2c(C)c1CCC(=O)Nc1ccccc1
    0.075 | -0.6
O=C(CSc1cccc(-c2ccccc2)n1)c1cccs1
    -0.4 | -0.2
CC1(C)CC(=O)c2c(S(C)(=O)=O)sc(C#N)c2C1
    -0.94 | /
CC(=O)NCCNC(=O)NCCc1ccc(S(N)(=O)=O)cc1
    -0.58 | /
Cc1cc(C)n(C(=O)NC2CCCCC2)n1
    0.44 | -0.2
O=C(c1ccc2sc(=S)[nH]c2c1)N1CCCC1
    -0.17 | 0
Cc1sc(-n2cccc2)c(C(=O)O)c1C
    -0.91 | 0.9
Cc1ccccc1C1C(C#N)=C(SCc2ccccc2)NC(=O)C1C#N (stereo not drawn)
    3 | -0.1
CC(C)CCC1(C)NC(=O)N(CC(=O)c2ccc[nH]2)C1=O (stereo not drawn)
    / | 0.2
CN(C)c1ccc(N/C=C(\C#N)c2nc3ccccc3[nH]2)cc1
    / | 2.2
CC(C)(C)C(=O)Nc1cc(C(F)(F)F)ccc1-n1ccnc1
    -0.5 | -0.6
Cc1cc(C(F)(F)F)c2c(C)nn(CCc3nn[nH]n3)c2n1
    / | -0.4
CS(=O)(=O)N(CCC(=O)O)Cc1ccccc1
    / | -0.2
COc1ccc(CNS(=O)(=O)c2cc(Cl)ccc2Cl)cc1OC
    -0.67 | /
CC(C)(C)c1cc(C(=O)NCc2ccco2)ccn1
    -0.12 | -0.7
Cc1ccccc1N(C(=O)CCc1c(C)noc1C)c1nc2ccccc2s1
    / | -0.2
CCOC(=O)C1C(=O)NC(SCC(=O)Nc2ccccc2C)=C(C#N)C1c1ccccc1Cl (stereo not drawn)
    -0.11 | /
Nn1cnc2ccccc2c1=O
    / | -0.5
Cc1noc(C)c1CCC(=O)Nc1ccc(Br)cc1Cl
    / | 0

Entries of single compounds from above. Order of screens: Ba CapD inh | AID504770
Cc1cc(C)n(C(=O)NC2CCCCC2)n1 as listed: 0.44 | -0.2
Cc1ccccc1N(C(=O)CCc1c(C)noc1C)c1nc2ccccc2s1 as listed: / | -0.2
COc1ccc(CNS(=O)(=O)c2cc(Cl)ccc2Cl)cc1OC as listed: -0.67 | /

The listing continues:
Values run as follows: Ba CapD inh | AID504770
O=C1c2ccccc2C(=O)N1CCC1=NCCc2ccccc21
    0.4 | -0.7
CCCCNC(=O)CSc1nc(NC2CCCCC2)c2ccccc2n1
    16 | /
Cc1ccc(NC(=O)C2(c3ccccc3)CCCC2)nc1
    0.06 | -0.6
CC(=O)N1CCN(C(=O)c2nn(Cc3ccccc3)c(=O)c3ccccc23)CC1
    / | -0.05
CC(=O)SC1CC(=O)N(c2ccc(C(F)(F)F)cc2)C1=O (stereo not drawn)
    0.29 | 0.95
CC(C)Oc1ccc(CNC(=O)C2CCCN(S(=O)(=O)N(C)C3CCCCC3)C2)cc1 (stereo not drawn)
    0.34 | -0.6
Cc1c(C)n(CC(O)CNC(C)(C)C)c2ccccc12 (stereo not drawn)
    0.11 | 0.65
Cc1oc2nc(SCC(=O)N3CCCCC3)nc(N)c2c1C
    -0.095 | -0.1
NS(=O)(=O)c1ccc(CCNC(=O)CSc2ccc3c(c2)OCCO3)cc1
    / | 1.2
COCCn1c(SCc2ccncc2)nc2ccccc2c1=O
    / | -0.15
O=C(O)c1sccc1Br
    0.47 | /
COc1ccccc1CNC(=O)CSC1=NCCS1
    / | 0
CNC(=S)NCCCN1CCN(c2ccc(F)c(Cl)c2)CC1
    0.16 | 0.55
CC1(C)S[C@@H]2[C@H](NC(=O)[C@@H](N)c3ccc(O)cc3)C(=O)N2[C@H]1C(=O)O
    -0.55 | -1.2
O=C1CCCN1CCCNc1nc(-c2ccccc2)no1
    0.41 | 0.4
Oc1ccccc1-c1cc(-c2ccccc2O)nc(-c2ccccc2)n1
    -0.45 | 1
Cc1cc(C)c2c(-n3cccc3)c(C(=O)O)sc2n1
    -0.29 | 1.6
COc1ccc(C(CC(=O)NC2CCCC2)NS(=O)(=O)c2ccc(C)cc2)cc1 (stereo not drawn)
    0.55 | 0.55
CCC(Sc1nc2ccsc2c(=O)n1Cc1ccc(C(=O)O)cc1)C(=O)Nc1cccc(OC)c1 (stereo not drawn)
    0.2 | -0.6
Clc1cccc(N2CCN(c3ncnc4c3cnn4-c3ccccc3)CC2)c1
    -0.53 | /
COc1ccc(CCn2c(-c3ccc(-c4ccccc4)cc3)csc2=Nc2cccc(C(F)(F)F)c2)cc1
    -0.27 | /
CN(C)/C=C/c1onc(-c2c(F)cccc2Cl)c1C#N
    -1.1 | -0.3
COc1cc(C(=O)NCCCc2nc3ccccc3[nH]2)cc(OC)c1OC
    / | -0.8
O=C(CCCN1CC=C(n2c(=O)[nH]c3ccccc32)CC1)c1ccc(F)cc1
    -0.015&0.17 | 0.4
CCCCOc1ccc(C2C(N3C(=O)c4ccccc4C3=O)C(=O)N2c2ccc(C)c(F)c2)cc1 (stereo not drawn)
    0.015 | /
Cc1ccc(SCc2cc(=O)[nH]c(N3CCCCC3)n2)cc1
    / | 0.9
CN1CCN(C(=O)CCc2nc(-c3ccccn3)no2)CC1
    0.79 | -0.55
O=C(Nc1ccc(S(=O)(=O)N2CCCCC2c2cccnc2)cc1)C1CCCCC1 (stereo not drawn)
    -0.71 | /
Cc1cc(C)cc(-n2c(SCC(=O)NCC3CCCO3)nc3c(c2=O)SC(C)C3)c1 (stereo not drawn)
    / | 0.6
COc1cccc(-c2nc(CS(=O)(=O)CC(=O)Nc3ccccc3C)c(C)o2)c1
    0.075 | -0.7
N=c1c[n+](-c2ccc(Cl)cc2)[n-]o1
    1.7 | -1.2
O=C(COC(=O)/C=C/c1ccccc1)Nc1c(F)cccc1F
    1.1 | 0.3
COc1cc(OC)nc(OC(CCCN2CCOCC2)c2ccc(F)cc2)n1 (stereo not drawn)
    -0.23 | /
O=C(c1ccc(Cl)cc1)N1CCCC(c2nc(-c3ccc(Cl)cc3)no2)C1 (stereo not drawn)
    / | -0.8
COc1cccc(NC(=S)Nc2ccc(S(N)(=O)=O)cc2)c1
    3.5 | 0.55
CCCc1c(C)nc(SCc2c(F)cccc2Cl)nc1OC(=O)N(C)C
    -0.83 | 0
COc1ccc(-c2noc(-c3ccc(Cl)c(Cl)c3)n2)cc1
    -1.3 | 0.25
CCOC(=O)c1cnc2ccccc2c1NCC(C)O (stereo not drawn)
    / | 0.9
O=c1[nH]c2sc3c(c2c2ncnn12)CCCC3
    4 | 1.4
CSc1cccc(NC(=O)CSc2ccccn2)c1
    -0.29 | 0.05
COc1cccc(-c2nc(=S)c3c(o2)CCCC3)c1
    -0.62 | -0.4
O=C(NCCSc1ccccc1)c1cncc(Br)c1
    0.025 | 0.3
O=C(CCCN1C(=O)/C(=C/C=C/c2ccccc2)SC1=S)NC1=NCCS1
    -0.27 | 0.1
Cc1ccc2nc(-c3ccc(N=Cc4c[nH]c5ccccc45)cc3)sc2c1
    43 | -0.3
CCC1=C(C(=O)OC)C(/C=C/c2ccccc2)n2ncnc2N1 (stereo not drawn)
    / | -0.35
CN(C(=O)CSc1ccc(C(F)(F)F)cn1)c1c2c(nn1C)CCCC2
    0.21 | 0.65
COc1ccc(C2=NN(C(=O)c3cc(OC)c(OC)c(OC)c3)C(c3ccc(Cl)cc3)C2)cc1OC (stereo not drawn)
    1.9 | /
Cc1nc(Cl)c(C#N)cc1-c1ccccc1
    0.79 | -0.45
O=c1ccnc2n1COCS2
    0.24 | 0
Cc1ccc(CNc2cccnc2)cc1
    6 | -0.35
Cc1cccc(NCN2C(=O)S/C(=C/c3ccc(N(C)C)cc3)C2=O)c1
    / | -0.05
O=C(NCC1CCCO1)c1ccc(CSc2ncn[nH]2)cc1 (stereo not drawn)
    / | 0.2
CCOc1ccc(Nc2cc(C(=O)NCc3ccc(F)cc3)c3ccccc3n2)cc1
    0.73 | 1.6
O=C(OCC(=O)N1CCCCC1)c1ccc(S(=O)(=O)N2CCCCC2)cc1
    / | -1.1
CCc1cccc2nc(SC(CC)C(=O)NN)n(-c3ccc(OC)cc3)c(=O)c12 (stereo not drawn)
    0.09 | -0.3
COCC(C)n1c(SCC(N)=O)nc2ccccc2c1=O (stereo not drawn)
    / | -1.2
CCCOc1ccc(-c2nc(OCC)c3ccccc3n2)cc1
    0.18 | 0.2
CCS(=O)(=O)Nc1ccc(Br)cn1
    8.2 | -1.1
COCCn1c(-c2ccccc2)cnc1N
    / | -1.5
C/C(=N\N(C)c1ccccc1)C1=C(O)CC(C)(C)CC1=O
    0.63 | -0.1

An excerpt of these results, as tab-separated lines.
structure	Ba CapD inh	AID504770
CN(C(=O)CSc1ccc(C(F)(F)F)cn1)c1c2c(nn1C)CCCC2	0.21	0.65
COc1ccc(C2=NN(C(=O)c3cc(OC)c(OC)c(OC)c3)C(c3ccc(Cl)cc3)C2)cc1OC (stereo not drawn)	1.9	/
Cc1nc(Cl)c(C#N)cc1-c1ccccc1	0.79	-0.45
O=c1ccnc2n1COCS2	0.24	0

From PubChem
